Source: PubChem (National Center for Advancing Translational Sciences (NCATS))
miR-21 reporter = qHTS Assay for Modulators of miRNAs and/orActivators of miR-21 | 340,000 tested, under 10 active | HeLa miR-21 FLuc reporter, luciferase, 48 h | Potency, µM (highest dose often 38.3 µM), without a hit: top-dose reporter change, positive = more light | AID 2288, 2010; active = well fitted rising curve with a large enough effect; inconclusive = small, poorly fitted or top-dose-only effect; inactive = no such curve, though single readings can be large or run the other way;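 also: % of control where 0% means no effect; miR-21 action dims this reporter so a rising signal means less miR-21 action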
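HeLa cells stably expressing CMV-driven firefly luciferase with a downstream miR-21 binding sequence, endogenously expressing miR-21, were treated with titrations (up to about 40uM final) for 48 hours at 37 degree Celsius. Luciferase luminescence was read after lysis.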
Rango-impB inh = qHTS Assay for Inhibitors of Rango (Ran-regulated importin-beta cargo) - Importin beta complex formation; Potency, µM (titrated, usually from 92.2 µM), without a hit: at the top dose inhibition of complex formation; Rango CFP/YFP FRET sensor + importin beta, 45 min; hit rate 0.031% among 340,000; AID 540263, 2011; Importin subunit beta-1 (Homo sapiens), Q14974; active = rising FRET ratio curve, often small or poorly fitted; inconclusive = mostly compound fluorescence or quenching in the first reads; inactive = flat curves in all reads;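 also: potency is read from the fitted curve at half-maximal effect; 0% = DMSO wells and 100% = buffer wells lacking importin beta; nearly all actives have a fitted effect of over 15% in size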
Target sequence (Q14974 whole entry, looked up): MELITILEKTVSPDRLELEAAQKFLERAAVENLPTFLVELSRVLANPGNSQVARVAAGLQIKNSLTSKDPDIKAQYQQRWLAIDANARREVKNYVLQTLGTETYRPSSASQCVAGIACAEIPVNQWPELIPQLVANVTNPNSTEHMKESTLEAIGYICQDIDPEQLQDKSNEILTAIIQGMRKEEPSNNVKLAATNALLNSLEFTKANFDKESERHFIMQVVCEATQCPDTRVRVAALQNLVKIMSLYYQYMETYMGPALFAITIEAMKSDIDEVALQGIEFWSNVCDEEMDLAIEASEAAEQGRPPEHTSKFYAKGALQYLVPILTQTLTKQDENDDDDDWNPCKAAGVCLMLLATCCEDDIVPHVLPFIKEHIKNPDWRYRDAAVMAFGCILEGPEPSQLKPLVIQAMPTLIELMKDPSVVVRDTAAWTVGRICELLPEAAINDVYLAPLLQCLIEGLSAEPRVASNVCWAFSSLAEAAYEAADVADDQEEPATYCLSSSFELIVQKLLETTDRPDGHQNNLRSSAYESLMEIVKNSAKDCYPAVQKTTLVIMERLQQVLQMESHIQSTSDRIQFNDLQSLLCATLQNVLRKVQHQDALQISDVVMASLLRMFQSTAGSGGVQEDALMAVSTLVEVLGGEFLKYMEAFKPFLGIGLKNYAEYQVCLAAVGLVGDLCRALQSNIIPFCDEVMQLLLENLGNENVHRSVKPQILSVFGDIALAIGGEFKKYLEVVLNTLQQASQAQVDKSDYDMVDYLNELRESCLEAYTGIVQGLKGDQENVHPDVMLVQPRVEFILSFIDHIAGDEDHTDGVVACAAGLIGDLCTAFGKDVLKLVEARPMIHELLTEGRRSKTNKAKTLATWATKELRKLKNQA
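Inhibition scored from the CFP 486 nm/YFP 530 nm FRET ratio 45 min after adding 0.125 microM importin beta to 50 nM Rango biosensor preincubated 5 min with compound (room temperature, PBS with DTT, Tween-20, BSA). No-importin wells as positive control.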
GLA inh pH 4.5 = qHTS Assay for Inhibitors of Human alpha-Galactosidase at pH 4.5 | activity change, negative = inhibition, % at 105 µM | 230,000 tested, under 10 active | purified enzyme, 4-MU-alpha-Gal fluorescence, pH 4.5; inconclusive = small, poorly fitted or top-dose-only inhibition, or a rising curve; inactive = flat fitted curve, though single readings scatter; no compound was filed as active;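 also: 0% = full activity with enzyme and -100% = basal without enzyme; dose as in the result columns while the protocol names 77 µM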
Rango dissoc inh = qHTS Assay for Inhibitors of RanGTP induced Rango (Ran-regulated importin-beta cargo) - Importin beta complex dissociation | Potency, µM (series often up to 46.1 µM), for inactives: at the highest dose activity change, negative = inhibition | Snurportin-1 (Homo sapiens) + GTP-binding nuclear protein Ran (Homo sapiens) + Importin … | Biochemical FRET Rango-importin beta, RanGTP-induced dissociation | hit rate 0.071% among 340,000; active means falling FRET ratio curve, often poorly fitted, with flat reads before Ran was added; inconclusive means other falling curves, or compound fluorescence or quenching; inactive means flat or rising ratio curve;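 also: potency is read from the fitted curve at half-maximal effect; % of control where 0% means no effect; nearly all actives have a fitted effect of over 45% in size; -100% = wells without RanGTP and RCC1; the record marks most hits as doubtful in a second field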
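Compounds sat 5 min at room temperature with 0.1 uM Rango biosensor plus 0.25 uM importin beta, then FRET pre-read. RanGTP-RCC1 (0.6 uM Ran, 2mM GTP, 0.2 uM RCC1) added for 45 min, and the CFP/YFP post-read measured blocked complex dissociation.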
An asterisk follows results filed as active; ? = inconclusive; . = not tested or not shown; & = joins results of further samples; [ ] = dose if it differs, or a comment. Not all compounds are listed (hit frequency here may not be typical).

SMILES,miR-21 reporter,Rango-impB inh,GLA inh pH 4.5,Rango dissoc inh
CCOC(=O)N/N=C1\CC(C)S(=O)(=O)c2ccc(Cl)cc21 (stereo not given),-3.8%,2.7%,-3.5,-16.6%
O=S(=O)(c1cccs1)N1CCN(c2cccc(Cl)c2)CC1,-4.7%,1.2%,.,-9.2%
CC(C)(CO)NC(=O)c1ccc2nc(Cc3cccc(Cl)c3)oc2c1,-57.3%,0.2%,.,0.6%
O=C(Cc1c(Cl)cccc1Cl)NC1CC1,-0.6%,8.9%,.,-5.8%
COc1ccccc1COCC(O)CNCCc1ccc(C(F)(F)F)cc1 (stereo not given),-0.2%,-0.3%,.,-0.2%
O=C(Nn1cnnc1)c1cc(-c2ccccn2)nc2ccccc12,3.7%,4.5%,-8.9,-11.1%
O=C(CSc1nncn1-c1ccccc1)Nc1cc(Cl)cc(Cl)c1,-6.7%,2.2%,4.7,10.8%
COCCN(C(=O)COC(=O)/C=C/c1ccc(Cl)c(Cl)c1)c1c(N)n(Cc2ccccc2)c(=O)[nH]c1=O,.,-2.1%,.,-6.6%
Cc1cccc(N2CCN(C(=O)c3cccc(N4C(=O)C5C6C=CC(C6)C5C4=O)c3)CC2C)c1 (stereo not given),25.6%,-1.0%,.,-7.7%
CCN(c1ccccc1)S(=O)(=O)c1ccc2[nH]cc(C(=O)N3CCOCC3)c(=O)c2c1,0.4%,-4.5%,8.4,-0.1%
CN(Cc1ccco1)C(=O)CN1C(=O)NC2(CCCCC2)C1=O,.,-1.8%,.,6.0%
Cn1c2c(c(=O)n(C)c1=O)C1(C(=O)Nc3ccccc31)C(C#N)=C(N)O2 (stereo not given),-0.8%,-1.0%,6.1,-2.9%
CSc1ccc(Cl)c(C(=O)OCC(=O)NCC(C)C)c1,2.5%,-0.2%,-1.4,4.3%
O=C(CCC(=O)OCCCC(F)(F)C(F)(F)F)NC1CCCCC1,-5.3%,-2.5%,-7.3,-4.1%
O=C(CSc1nnc(C2CC2)n1-c1ccccc1)NCCN1C(=O)CSC1=O,0.3%,1.2%,-3.0,-0.2%
CC(C)C[C@@H](CN1CCCC1CN1C(=S)NC[C@@H]1Cc1ccc(O)cc1)N1C[C@H](Cc2ccc(O)cc2)N(CC2CCCCCC2)C1=S (stereo not given in full),.,-1.5%,.,-0.5%
O=C(NCCOc1ccccc1)C1CCC(=O)N(CCCN2CCOCC2)C1 (stereo not given),.,-2.5%,.,8.0%
O=C(Nc1nc2ccc(S(=O)(=O)N3CCCC3)cc2s1)c1cccs1,-34.0%,0.2%,1.3,-2.1%
CCc1ccc(NC(=O)CCc2nc3ccccc3[nH]2)cc1,-0.8%,-2.1%,-9.1,16.3%
Cn1ncc([N+](=O)[O-])c1C(=O)N/N=C/c1c[nH]c2ccccc12,-8.1%,7.4%,0.9,15.6%
Cc1ccc(S(=O)(=O)N2CCN(C(=O)c3ccccc3)CC2)c(C)c1NS(C)(=O)=O,3.2%,-1.0%,3.6,20.5%
Cc1noc(C)c1C(=O)Nc1ccc(-n2ccc(C(F)(F)F)n2)cc1,-0.8%,0.7%,.,-4.3%
CCCCNC(=S)N/N=C/c1ccc(C#N)cc1,7.6%,-0.5%,-2.4,-0.1%
CCn1cc(CN2CCC(n3nccc3NC(=O)CCOc3ccccc3)CC2)cn1,-0.1%,-0.4%,.,1.7%
CCOC(=O)C1C(=O)NC(N2CCN(Cc3ccccc3)CC2)=NC1c1ccco1 (stereo not given),-3.0%,1.8%,1.0,-12.4%
O=C(N/N=C/C1CC=CCC1)c1ccccc1O (stereo not given),-20.7%,1.2%,4.5,12.1%
CN1CCCC(OC(=O)COc2ccc(Br)cc2)C1 (stereo not given),-2.9%,-0.4%,1.1,0.2%
CCOC(=O)CSc1nnc(CNC(=O)c2cc(OCC)c(OCC)c(OCC)c2)n1C,-3.2%,0.2%,2.7,1.9%
O=C1C=C(O)C(n2cncn2)C(c2cc(F)ccc2F)C1 (stereo not given),-2.3%,0.0%,2.7,-8.2%
O=[N+]([O-])c1ccccc1CSc1ccccn1,-16.5%,-1.1%,2.7,8.3%
Cc1ccc(N2C(=O)CCC2(C#N)c2ccccc2)cc1 (stereo not given),0.4%,0.1%,-7.0,1.6%
CC(C)C(NC(=S)NCc1ccccc1)C(=O)O (stereo not given),12.0%,8.4%,1.9,-5.3%
CCOc1ccc(-n2c(=O)c3c4c(sc3n(CC(=O)NCCCOC)c2=O)CCCCC4)cc1,-3.3%&-0.1%,1.2%,4.3[21.1 µM],-10.1%
NC(=S)NN=C1CCCCCCCCC1,.,-1.6%,.,-1.2%
Cc1cc(C)n2nc(CNS(=O)(=O)c3ccc(C)c(C)c3)nc2n1,-5.3%&-0.4%,1.7%,.,11.3%
C=CCS(=O)(=O)N1CCC(CCOc2ccccc2)(C(=O)OCC)CC1,6.0%,0.3%,2.3,4.8%
Cc1ccc(Cc2cnc(NC(=O)/C(C#N)=C/c3ccc(-c4ccc([N+](=O)[O-])cc4)o3)s2)cc1,-10.6%,1.0%,0.6,11.5%
O=c1c2c3c(sc2ncn1-n1cccc1)CCCCC3,-75.9%,-2.0%,0.8,-5.8%
CN1CCN(CCCNC(=O)c2ccc(/C=C3\Sc4ccccc4N(Cc4ccccc4F)C3=O)cc2)CC1,-21.0%,?,-9.0,?
Cn1c(Cn2nnc3ccccc32)nnc1SCC(=O)Nc1ccc2c(c1)OCO2,1.1%,-3.3%,-4.8,16.2%
Cc1noc(C)c1CSCC(=O)Nc1cc(C(F)(F)F)ccc1N1CCCCC1,.,0.1%,.,-0.5%
N#C/C(=C(/O)CCl)c1nc2c(s1)CCc1ccccc1-2,-15.7%,-0.5%,.,3.3%
CC(=O)Nc1ccc(NC(=O)C(C)OC(=O)c2cccs2)cc1 (stereo not given),.,-0.9%,.,0.2%
O=C(O)CCS(=O)(=O)Cc1cccc(Cl)c1,-3.5%,-5.6%,3.4,-8.6%
O=C(CSc1nc2ccccc2n1Cc1ccc(Cl)cc1)N/N=C/c1ccc(C(=O)O)cc1,1.7%,-2.2%,-0.2,-1.4%
O=c1c2ccccc2n2c(=S)[nH]nc2n1-c1ccccc1,-9.6%,-4.7%,.,-17.8%
CCOCCCNCc1cccc(OCc2ccc(F)cc2)c1,-6.9%,-5.0%,-3.9,-4.4%
O=C(Nc1nccs1)c1sc2ccccc2c1Cl,-6.1%,-0.1%,-0.6,-0.5%
Cc1nnc(SCC(=O)N(C)c2ccccc2)n1Cc1ccccc1,-4.2%,9.8%,-5.7,14.4%
CC(C)CCNC(=O)C(=O)NC1CCCC1,-45.4%,?,6.4,4.0%
CCCC(=O)c1c(NCCO)cc(C)oc1=O,2.7%,0.8%,-1.1,5.1%
CCCN(c1ccc(OCC)cc1)S(=O)(=O)c1ccc2c(c1)NC(=O)CO2,0.9%,-0.9%,.,21.5%
C/C(=N\N=C1\NC(=O)C(CC(=O)O)S1)c1ccccn1 (stereo not given),1.8%,0.6%,-3.0,-3.1%
Cc1ncc([N+](=O)[O-])n1CC(=O)NC1CCCC1,-7.7%,3.2%,-6.0,5.3%
Cc1occc1C(=O)NCCCCNC(=O)c1ccoc1C,-1.0%,-4.6%,-26.6,-0.5%
Cc1c(NC(=O)c2cccs2)c(=O)n(-c2ccccc2)n1C,0.0%,2.0%,-17.7,10.8%
Cc1ccc(C)c(NC2CCCCC2NS(=O)(=O)c2ccccc2)c1 (stereo not given),-0.3%,-0.1%,.,-16.8%
COc1ccc(C2/C=C\CC(OCc3ccccc3)CC(=O)N2Cc2cccc(F)c2)cc1 (stereo not given),.,0.7%,-17.4,-1.4%
CCO[C@@H]1OC(C(=O)NC2CC2)=C[C@H](c2coc3ccccc3c2=O)[C@H]1CCCO,.,10.3%,.,15.3%
CC1CCN(c2ccccc2NC(=O)c2cc3ccccc3o2)CC1,-8.1%,2.1%,.,2.6%

Continuation:
SMILES,miR-21 reporter,Rango-impB inh,GLA inh pH 4.5,Rango dissoc inh
Cc1ccc(C(C)C)c(OCCn2ccnc2C)c1,-1.8%,-0.2%,.,-20.9%
CC1N=C2c3ccccc3N=C(SCc3cc(=O)n4cc(Cl)ccc4n3)N2C1=O (stereo not given),-21.4%,0.3%,-4.4,-1.4%
CCCOc1ccc(C2C(=O)N(C3CCCCC3)CC(=O)N2CCCOCC)cc1OC (stereo not given),-4.0%,-3.1%,-13.1,0.8%
O=C(NCc1ccc(Cl)cc1)[C@@H]1CCCN1S(=O)(=O)c1ccc(Cl)cc1,.,3.7%,.,-7.4%
CCN(CC)CCN(Cc1cc2cc(C)cc(C)c2[nH]c1=O)C(=S)NCc1ccco1,-3.7%,-3.0%,1.1,-19.6%
C=C1/C(=C\C=C2/CCC[C@]3(C)[C@@H]([C@H](C)CCCC(C)(C)O)CC[C@@H]23)C[C@@H](O)C[C@@H]1O,-6.0%,.,-2.5&-8.9,.
O=S(=O)(c1cccc(-c2nnc(SC(F)F)n2-c2ccccc2)c1)N1CCCCC1,12.5%,3.7%,7.5,-3.2%
CC(C)CCOc1ccc(/C=N/N2C(=O)CSC2=S)cc1,2.4%,0.2%,.,-17.5%
C[C@H](CO)N1C[C@H](C)[C@@H](CN(C)S(=O)(=O)c2ccc(F)cc2)Oc2ccc(NS(=O)(=O)c3cccs3)cc2C1=O,.,-0.3%,.,-10.0%
O=C(/C=C/c1cccc(OCc2ccccc2)c1)c1cccnc1,?,-0.2%,-5.5,30.8%
CN(Cc1c(F)cccc1Cl)C(=O)CCc1c[nH]c2ccccc12,-19.1%,-1.3%,.,-8.2%
Cc1nc(CC(=O)c2c(C)cc(O)cc2O)cs1,-1.8%,-3.8%,-3.4,-8.3%
COCCN(C(=O)COC(=O)c1cccnc1SC)c1c(N)n(Cc2ccccc2)c(=O)[nH]c1=O,.,-1.7%,.,-2.4%
Cc1ccc(S(=O)(=O)N2CCN(C(=O)c3ccc4ccccc4n3)CC2)c(C)c1,.,0.2%,.,-13.0%
COc1ccccc1NC(=O)C(C)OC(=O)c1cc2ccccc2[nH]1 (stereo not given),.,0.4%,.,-5.5%
CC(C)(CC(=O)O)CC(=O)Nc1ccc2c(c1)ncn2CCc1ccccc1,-0.3%,-2.4%,.,-0.6%
CCn1c(SCC(=O)Nc2oc(-c3ccccc3)c(-c3ccccc3)c2C#N)nnc1-c1ccncc1,0.9%,0.0%,-2.6,1.7%
COc1cc(/C=N/NC(=O)c2ccc(N3CCCC3=O)cc2)ccc1O,-32.9%,0.1%,.,-7.0%
CCN(Cc1ccccc1)C(c1ccc(C)cc1)c1nnnn1C(C)(C)C (stereo not given),-2.2%,-3.8%,-8.6,6.6%
CN(C(=O)C1CCC1C(=O)O)c1nc(-c2ccc(Cl)s2)cs1 (stereo not given),-16.7%,-0.6%,-2.3,1.1%
Cc1cc(NCCCCO)n2c(nc3ccccc32)c1C#N,5.8%,?,?,-25.1%
CC(=O)NC(Cc1ccc(F)cc1)C(=O)NC1CCN(C(=O)Nc2ccccc2C)CC1 (stereo not given),2.5%,0.5%,.,10.6%
O=C(C1CCCO1)N1CCN(C(=S)Nc2ccc(Br)cc2)CC1 (stereo not given),4.3%,1.8%,.,-6.9%
S=C1NCN(Cc2ccco2)CN1c1cccc2ccccc12,-0.1%,0.6%,-1.0,?
O=C(O)c1ccccc1NS(=O)(=O)c1cccc2nsnc12,5.3%,0.1%,.,9.0%
COCCNC(=O)C1CC2Cn3c(nc4cc(C)c(C)cc43)C2N1C (stereo not given),-7.5%,1.7%,5.0,10.0%
